From PubChem
AF4-AF9 inh – blocks AF4 peptide binding to human AF9. P42568. AlphaScreen, biotin-AF4 peptide binding to FLAG-AF9. inhibition, % at 10 µM. actives 0.47% (n = 350,000). AID 651704;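 active = every replicate reaching a set inhibition limit, whatever the replicate mean, cut at about 25% in these data; inconclusive = mean inhibition reaches that limit but some replicates miss it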;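 note: 0% = plate neutral control median and 100% = total signal loss; the record names both 10 and 1 µM as test concentration; the first replicate is given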
Target sequence (P42568 whole entry, looked up): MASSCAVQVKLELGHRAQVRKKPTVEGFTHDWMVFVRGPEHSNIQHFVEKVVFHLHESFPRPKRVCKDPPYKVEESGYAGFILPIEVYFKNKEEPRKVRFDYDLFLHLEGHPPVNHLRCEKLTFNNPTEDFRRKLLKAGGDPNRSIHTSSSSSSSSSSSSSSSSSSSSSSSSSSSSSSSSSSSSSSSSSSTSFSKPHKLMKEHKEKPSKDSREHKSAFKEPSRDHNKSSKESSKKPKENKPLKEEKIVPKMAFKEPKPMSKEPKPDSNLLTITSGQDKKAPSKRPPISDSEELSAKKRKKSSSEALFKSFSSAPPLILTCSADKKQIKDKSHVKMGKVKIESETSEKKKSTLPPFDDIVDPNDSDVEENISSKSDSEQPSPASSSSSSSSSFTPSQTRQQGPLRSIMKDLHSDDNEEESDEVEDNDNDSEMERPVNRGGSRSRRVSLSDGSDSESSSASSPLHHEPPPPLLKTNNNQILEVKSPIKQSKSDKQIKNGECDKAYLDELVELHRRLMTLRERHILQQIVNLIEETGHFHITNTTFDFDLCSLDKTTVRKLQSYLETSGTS
The depositor's hits bear a star; ? = inconclusive; & = joins results of further samples. The list is partial; the hit share may differ from the screen's.

SMILES	AF4-AF9 inh
CS(=O)(=O)N1CCCCN2[C@H](CO)[C@H](c3ccc(Br)cc3)[C@H]2C1	-9.5
O=C(c1cccnc1)N1CCCCN2[C@@H](CO)[C@H](c3ccc(C#Cc4ccccn4)cc3)[C@@H]2C1	-5.6
O=C(NC1CCCC1)N1CCCCN2[C@@H](CO)[C@H](c3ccc(/C=C/c4ccccc4)cc3)[C@@H]2C1	21.8
C[C@H](CO)N1C[C@H](C)[C@H](CN(C)Cc2ccncc2)Oc2ncc(C#Cc3ccccn3)cc2C1=O	-5.2
C[C@H]1CN([C@@H](C)CO)C(=O)c2cccc(NC(=O)c3nc4ccccc4s3)c2O[C@@H]1CN(C)C(=O)NC1CCCCC1	0.3
Cc1noc(C)c1NC(=O)Nc1ccc2c(c1)C(=O)N([C@@H](C)CO)C[C@@H](C)[C@H](CN(C)C(=O)C1CCCCC1)OCCCC[C@H](C)O2	3.5
C[C@@H]1CN([C@@H](C)CO)C(=O)CCCn2cc(nn2)CO[C@H]1CN(C)C(=O)Nc1cccc(F)c1	0.8&0.1&-2.3
Cc1ccc(-c2ccc3c(c2)O[C@@H](CN(C)C(=O)C2CCC2)[C@H](C)CN([C@H](C)CO)S3(=O)=O)cc1	7.3
Cc1ccc(NC(=O)C2(C)CCN2C(=O)C2(c3ccc(Cl)cc3)CC2)cc1 (centres undefined)	-1.7
O=C(Nc1cccc(F)c1)N1CC(=O)N2[C@H](CO)[C@@H](c3ccc(-c4cccc(F)c4)cc3)[C@@H]2C1	-1.3
O=C(C1CCCCC1)N1C[C@H]2[C@@H](c3ccccc31)[C@@H](CO)N2C(=O)c1ccccc1	1.0
CC(C)NC(=O)N1CC2(C1)[C@H](c1ccccc1)[C@H](CO)N2C(=O)C1CC1	-1.5
C[C@@H]1CN([C@H](C)CO)C(=O)Cc2cc(NC(=O)Cc3cn(C)c4ccccc34)ccc2O[C@@H]1CN(C)C(=O)Nc1cccc2ccccc12	4.7
CC(=O)N(C)C[C@H]1Oc2cc(C#Cc3ccccc3)ccc2S(=O)(=O)N([C@@H](C)CO)C[C@@H]1C	10.2
Cc1ccccc1-c1cnc2c(c1)C(=O)N([C@H](C)CO)C[C@@H](C)[C@@H](CN(C)Cc1ccncc1)O2	-4.8
CC(C)C[C@@H](CNCC(=O)[C@H](Cc1c[nH]c2ccccc12)NC(=O)c1[nH]cnc1C(=O)N[C@@H](C)CN)NC(=O)c1nc[nH]c1C(=O)N[C@@H](CC(=O)O)C(=O)O	2.9
O=C(C[C@@H]1CC[C@@H]2[C@H](COC[C@H](O)CN2Cc2cccc(Cl)c2)O1)Nc1nccs1	3.3
COCCNC(=O)C[C@@H]1C[C@H]2c3cc(N(C)C)ccc3O[C@H]2[C@@H](CO)O1	-5.4
Cc1ccccc1Cn1c(C)c(C(=O)NCCC#N)sc1=O	-6.7
CCOC(=O)c1cc2c(c(-c3cccc(-c4cccc(OC)c4)c3)n1)[C@@H](CCO)N(S(=O)C(C)(C)C)C2 (some centres undefined)	-1.4
O=C(c1cccc(F)c1)N1CCCCN2[C@H](CO)[C@H](c3ccc(-c4ccncc4)cc3)[C@@H]2C1	-1.7
CO[C@@H]1[C@H](O)CC[C@]2(O)CN(c3ccccc3)[C@](C)([C@H](O)CC=C(C)C)[C@@H]12	-0.1
C[C@H](NC(=O)C[C@@H]1CC[C@@H](NS(=O)(=O)c2cccc(F)c2)[C@H](CO)O1)c1ccccc1	0.8
C[C@@H]1CN([C@H](C)CO)S(=O)(=O)c2ccc(-c3ccccc3)cc2O[C@@H]1CN(C)CC1CC1	2.7

Single entries from the list:
CCOC(=O)c1cc2c(c(-c3cccc(-c4cccc(OC)c4)c3)n1)[C@@H](CCO)N(S(=O)C(C)(C)C)C2 (some centres undefined) | AF4-AF9 inh = -1.4
COCCNC(=O)C[C@@H]1C[C@H]2c3cc(N(C)C)ccc3O[C@H]2[C@@H](CO)O1 | AF4-AF9 inh = -5.4

New compounds follow
SMILES	AF4-AF9 inh
COc1ccc(NC(=O)N(C)C[C@H]2OCCCC[C@@H](C)Oc3ccc(NC(=O)Nc4ccc(F)cc4)cc3C(=O)N([C@H](C)CO)C[C@@H]2C)cc1	1.3
CCOC(=O)N(C)c1c(CC)nc2c(OCc3cccc(Cl)c3)cccn12	1.2
C[C@H](CO)N1C[C@H](C)[C@H](CN(C)CC2CCCCC2)Oc2ccc(NC(=O)C3CCCCC3)cc2CC1=O	1.1
C[C@H](CO)N1C[C@H](C)[C@H](CN(C)C(=O)c2cccc(F)c2)Oc2ncc(-c3cccc(F)c3)cc2C1=O	2.4
C[C@H]1CN([C@@H](C)CO)C(=O)c2cc(-c3cccnc3)cnc2O[C@@H]1CN(C)C(=O)Nc1ccc(F)cc1	-0.4
O=C(NCC[C@H]1CC[C@@H](NS(=O)(=O)c2ccccc2)[C@H](CO)O1)c1ccccc1F	1.5
Cc1ccc(S(=O)(=O)N(C)C[C@@H]2Oc3c(NC(=O)C4CCOCC4)cccc3C(=O)N([C@H](C)CO)C[C@@H]2C)cc1	-0.8
C[C@@H]1CCCCO[C@@H](CN(C)Cc2ccc(Cl)c(Cl)c2)[C@H](C)CN([C@H](C)CO)C(=O)c2cc(NS(C)(=O)=O)ccc2O1	3.6
CO[C@H]1CN(C)C(=O)c2ccc(NC(=O)c3cc(C)on3)cc2OC[C@H](C)NC[C@@H]1C	-4.9
O=C(Nc1cccc(F)c1)N1[C@@H]2CNC[C@H]1C2c1ccc(-c2cccc(F)c2)cc1 (some centres undefined)	-3.2&-0.6
CC(=O)N1CCCCN2[C@@H](CO)[C@@H](c3ccc(-c4ccc(C)cc4)cc3)[C@@H]2C1	4.9
COCCCNC(=O)c1cc(Cc2ccccc2)sc1N	-3.7
C[C@@H]1CCCCO[C@H](CN(C)Cc2ccc(Cl)c(Cl)c2)[C@@H](C)CN([C@@H](C)CO)C(=O)c2cc(NC(=O)Nc3ccccc3)ccc2O1	0.9
COc1ccc(S(=O)(=O)Nc2ccc3c(c2)CC(=O)N([C@H](C)CO)C[C@@H](C)[C@@H](CN(C)C(=O)Nc2ccccc2)O3)cc1	2.6
O=C(c1ccc2c(c1)OCO2)N1CCCCN2[C@@H](CO)[C@@H](c3ccc(-c4ccccc4)cc3)[C@@H]2C1	6.2
COCC(=O)N1CC2(C1)[C@H](c1ccccc1)[C@@H](CO)N2C(=O)c1ccccc1	-4.2
C[C@@H]1CN([C@@H](C)CO)C(=O)c2cc(-c3cccc(C(=O)N(C)C)c3)cnc2O[C@H]1CN(C)C	-1.2
Cc1cccc(S(=O)(=O)N(C)C[C@H]2OCc3ccccc3-c3c(n(C)c4ccccc34)C(=O)N([C@H](C)CO)C[C@@H]2C)c1	2.6
C[C@H](CO)N1C[C@H](C)[C@H](CN(C)C(=O)Nc2cccc(F)c2)OCc2ccccc2-c2ccccc2C1=O	-3.5
C[C@@H]1CN([C@H](C)CO)C(=O)c2cc(NC(=O)CCCCCC(=O)Nc3ccccc3N)ccc2O[C@@H]1CN(C)S(=O)(=O)c1ccc(F)cc1	-5.8
C[C@H]1CCCCO[C@@H](CN(C)C(=O)c2ccccc2)[C@@H](C)CN([C@@H](C)CO)C(=O)c2cc(NC(=O)C3CCCCC3)ccc2O1	0.4
COc1ccccc1S(=O)(=O)N[C@@H]1CC[C@@H](CCNC(=O)C2CC2)O[C@H]1CO	-0.3
C[C@@H]1CN([C@@H](C)CO)C(=O)c2cc(C#Cc3ccccc3F)cnc2O[C@@H]1CN(C)S(=O)(=O)c1ccccc1F	1.9
O=C(Nc1ccccc1)N1CCCCN2[C@@H](CO)[C@H](c3ccc(C4=CCCCC4)cc3)[C@@H]2C1	7.3
COc1ccc(CN(C)C[C@@H]2OCCCC[C@H](C)Oc3ccc(NS(=O)(=O)c4cccs4)cc3C(=O)N([C@H](C)CO)C[C@H]2C)cc1	7.6
Cc1cccc(COC[C@H](Cc2ccccc2)N2CCN(C(=O)c3ccc(Cl)c(Cl)c3)CCC2=O)c1	-0.5
O=C(Cc1ccccn1)NCC[C@H]1CC[C@@H](NC(=O)CN2CCOCC2)[C@@H](CO)O1	2.7
C[C@H](O)C#Cc1ccc2c(c1)O[C@@H](CN(C)C(=O)c1ccncc1)[C@@H](C)CN([C@@H](C)CO)S2(=O)=O	-1.7
CCCNC(=O)Nc1ccc2c(c1)OC[C@H](C)NC[C@@H](C)[C@@H](OC)CN(C)C2=O	-1.1
O=S1(=O)CC(N2CCCC2)CN1Cc1cn(Cc2ccc(C(F)(F)F)cc2)nn1 (centres undefined)	-2.2
O=C(CSc1c2c(nc3ccc(Cl)cc13)CCCC2)N1CCN(C(=O)c2ccco2)CC1	-4.1
O=S1(=O)CCSC[C@@H](CN2CCCC2)N1	0.1
COCC(=O)Nc1ccc2c(c1)[C@H]1C[C@@H](CC(=O)N3CCOCC3)O[C@@H](CO)[C@H]1O2	-0.6
O=C(C[C@@H]1CC[C@H]2[C@@H](COC[C@H](O)CN2Cc2ccncc2)O1)NCC1CC1	-2.3
C[C@H](CO)N1C[C@H](C)[C@@H](CN(C)S(=O)(=O)c2ccccc2F)Oc2cc(C#Cc3ccccc3)ccc2S1(=O)=O	-0.8
N#C[C@@H]1[C@@H](c2ccccc2-c2cccc(F)c2)[C@H](CO)N1C(=O)C1CCCC1	-0.5
CCCNC(=O)[C@@H]1[C@@H](CO)[C@@H]2Cn3c(ccc(-c4ccccc4)c3=O)[C@@H]2N1C(=O)C1CCC1	-0.4
O=C(C[C@H]1C=C[C@H](NC(=O)c2cccc(F)c2)[C@H](CO)O1)NCc1ccccc1	-0.2
COc1cccc(-c2ccc3c(c2)[C@H]2[C@H](CCN2S(=O)(=O)c2ccccc2C)[C@H](CO)N3)c1	0.2
O=C(C1CCCC1)N1CC2(C1)[C@@H](c1ccccc1)[C@H](CO)N2CCC(F)(F)F	-2.7
COc1ccc(NC(=O)N2CCC3(CC2)CN(C(C)=O)[C@H](CO)c2[nH]c4cc(OC)ccc4c23)cc1	0.5
CCC(=O)N1CCCCN2[C@H](C1)[C@@H](c1ccc(-c3ccc(F)cc3)cc1)[C@@H]2CO	-4.2
COCC#Cc1cnc2c(c1)C(=O)N([C@@H](C)CO)C[C@H](C)[C@@H](CN(C)C(C)=O)O2	-14.1
CC(=O)N(C)C[C@H]1Oc2cc(Br)ccc2S(=O)(=O)N([C@@H](C)CO)C[C@@H]1C	-6.1
O=C(Nc1ccc2c(c1)[C@@H]1C[C@H](CC(=O)N3CCCCC3)O[C@H](CO)[C@@H]1O2)c1ccc2c(c1)OCO2	-1.0
C[C@@H]1CN([C@@H](C)CO)C(=O)c2c(c3ccccc3n2C)-c2ccccc2CO[C@@H]1CN(C)Cc1ccc(Cl)c(Cl)c1	-0.1
COCC(=O)N1C[C@@H](C)[C@@H](OC)CN(C)C(=O)c2ccc(NC(=O)c3ccc(F)cc3)cc2OC[C@H]1C	1.4
C[C@H](CO)N1C[C@H](C)[C@@H](CN(C)C(=O)Nc2cccc3ccccc23)Oc2c(cccc2N(C)C)C1=O	-2.5

10 structures already listed, arranged by SMILES length, highest first:
SMILES	AF4-AF9 inh
O=C(Nc1ccc2c(c1)[C@@H]1C[C@H](CC(=O)N3CCCCC3)O[C@H](CO)[C@@H]1O2)c1ccc2c(c1)OCO2	-1.0
CCCNC(=O)[C@@H]1[C@@H](CO)[C@@H]2Cn3c(ccc(-c4ccccc4)c3=O)[C@@H]2N1C(=O)C1CCC1	-0.4
COCC(=O)N1C[C@@H](C)[C@@H](OC)CN(C)C(=O)c2ccc(NC(=O)c3ccc(F)cc3)cc2OC[C@H]1C	1.4
C[C@H](CO)N1C[C@H](C)[C@@H](CN(C)C(=O)Nc2cccc3ccccc23)Oc2c(cccc2N(C)C)C1=O	-2.5
COCC#Cc1cnc2c(c1)C(=O)N([C@@H](C)CO)C[C@H](C)[C@@H](CN(C)C(C)=O)O2	-14.1
CCC(=O)N1CCCCN2[C@H](C1)[C@@H](c1ccc(-c3ccc(F)cc3)cc1)[C@@H]2CO	-4.2
CC(=O)N(C)C[C@H]1Oc2cc(Br)ccc2S(=O)(=O)N([C@@H](C)CO)C[C@@H]1C	-6.1
N#C[C@@H]1[C@@H](c2ccccc2-c2cccc(F)c2)[C@H](CO)N1C(=O)C1CCCC1	-0.5
O=C(C[C@H]1C=C[C@H](NC(=O)c2cccc(F)c2)[C@H](CO)O1)NCc1ccccc1	-0.2
O=C(C1CCCC1)N1CC2(C1)[C@@H](c1ccccc1)[C@H](CO)N2CCC(F)(F)F	-2.7

(continued)
SMILES	AF4-AF9 inh
COc1ccc2c3c([nH]c2c1)[C@@H](CO)N(C(C)=O)CC31CN(Cc2cc(-c3ccccc3)on2)C1	?
CCOc1ccc(Cl)cc1-c1cc(C(=O)Nc2ccc(F)cc2)[nH]n1	-0.6
C[C@H](CO)N1C[C@H](C)[C@@H](CN(C)S(=O)(=O)c2cn(C)cn2)Oc2ccc(NC(=O)CCCN(C)C)cc2C1=O	-2.1
Cc1ccc(S(=O)(=O)N(C)C[C@@H]2OCCCC[C@H](C)Oc3ccc(NC(=O)Nc4c(C)noc4C)cc3C(=O)N([C@@H](C)CO)C[C@H]2C)cc1	1.4
COc1ccc(S(=O)(=O)Nc2ccc3c(c2)[C@H]2C[C@@H](CC(=O)O)O[C@@H](CO)[C@H]2O3)cc1	-1.9
CO[C@H]1CN(C)C(=O)c2cc(NS(=O)(=O)CC(F)(F)F)ccc2OC[C@H](C)N(Cc2cccnc2)C[C@@H]1C	2.4
C/C=C/c1cnc2c(c1)C(=O)N([C@H](C)CO)C[C@@H](C)[C@H](CN(C)S(=O)(=O)c1ccc(F)cc1)O2	1.7
C[C@@H]1CN([C@@H](C)CO)C(=O)c2cc(NC(=O)Cc3ccccc3)ccc2O[C@H]1CN(C)C(=O)Nc1ccc2c(c1)OCO2	1.1
CCCCSc1nc2c([nH]1)c(=O)n(C)c(=S)n2C	-1.0
COc1ccc(CN(C)C[C@@H]2Oc3ccc(NS(=O)(=O)c4ccc(C)cc4)cc3CC(=O)N([C@H](C)CO)C[C@H]2C)cc1	-1.0
COc1ccc(NC(=O)N(C)C[C@@H]2Oc3c(NS(=O)(=O)c4c(C)noc4C)cccc3C(=O)N([C@H](C)CO)C[C@@H]2C)cc1	-1.1
C=CCCC(=O)N1C[C@H]2CON(C)[C@H]2C[C@H]1c1ccc(-n2ccnc2)cc1	2.2
O=C(CN1CCOCC1)N[C@H]1CC[C@@H](CCNC(=O)C2CCCCC2)O[C@H]1CO	-1.1
CCC(=O)N(C)C[C@@H]1Oc2ncc(C#Cc3ccccc3)cc2C(=O)N([C@@H](C)CO)C[C@@H]1C	0.6
